Assay outcomes deposited in PubChem BioAssay by National Center for Advancing Translational Sciences (NCATS).
gsp antagonist: qHTS for Antagonists of gsp, the Etiologic Mutation Responsible for Fibrous Dysplasia/McCune-Albright Syndrome: qHTS; gsp-mutant cells, cAMP HTRF, 30 min; control for the full effect not named in the record; Potency, µM (top dose mostly 76.9 µM), for the others: top-dose activity change, negative = inhibition, actives largely listed as inhibitors; 340,000 tested, 0.4% active; AID 624288, 2012; active = falling curve of any shape with a large fitted effect; inconclusive = falling curve, mostly with a smaller effect; inactive = flat or rising curve; cell line not stated here;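 note: intracellular cAMP measured with PDE inhibitor Ro 20-1724 present during compound exposure; potency is the fitted concentration of half-maximal effect; % is set by controls: 0 for no effect and ±100 for the full control effect; nearly all actives have a fitted effect of over 65% in size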
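HTRF cAMP measurement after 30 min RT detection following 30 min, 37C compound treatment alongside […] (added as 300 uM solution) in G418-selected cells seeded at 2000/well and grown 16–24 h.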
gsp agonist: qHTS for Agonist of gsp, the Etiologic Mutation Responsible for Fibrous Dysplasia/McCune-Albright Syndrome: qHTS; Potency, µM (doses to about 76.9 µM), without a hit: at the highest dose activation (cAMP increase), usual class: activators; 340,000 tested, 0.13% active; gsp mutant cells, cAMP HTRF, 30 min; control for the full effect not named in the record; active = well fitted activation curve with a large enough effect; inconclusive = small, poorly fitted or top-dose-only effect, or another doubt; inactive = no such curve, though single readings can be large or run the other way; cell line not stated here;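 note: phosphodiesterase inhibitor Ro 20-1724 added with compounds to block cAMP breakdown; potency is the fitted concentration of half-maximal effect; nearly all actives have a fitted effect of over 60% in size; about a fifth of the inactives were tested at one dose only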
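Cells in DMEM/10% FBS with G418 were pretreated with compounds in DMSO plus […] (300 uM stock) for 30 min at 37C. cAMP was measured by HTRF (cAMP-d2 plus anti-cAMP antibody-K) after 30 min at room temperature.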
TRPML1 inh: qHTS for Inhibitors of the Human Mucolipin Transient Receptor Potential 1 (TRPML1) | Mucolipin-1 (Homo sapiens), Q9GZU1 | activity change, negative = inhibition, % (test concentration not listed) | AID 624415, 2012 | TRPML1-inducible cells, Ca2+ dye fluorescence, FDSS; active compounds read low; inhibition of EC80 agonist-evoked calcium signal | 390,000 tested, 0.02% active; in the data active means activity change below about -50%; inconclusive means about -30% to -50%; inactive means above about -30%;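 note: stimulus is agonist 54-4 at its EC80 concentration; % is set by controls: 0 for no effect and ±100 for the full control effect; compound concentration not given in the record; the text of the record puts the active cut at -80%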
Target sequence (Q9GZU1 whole entry, looked up): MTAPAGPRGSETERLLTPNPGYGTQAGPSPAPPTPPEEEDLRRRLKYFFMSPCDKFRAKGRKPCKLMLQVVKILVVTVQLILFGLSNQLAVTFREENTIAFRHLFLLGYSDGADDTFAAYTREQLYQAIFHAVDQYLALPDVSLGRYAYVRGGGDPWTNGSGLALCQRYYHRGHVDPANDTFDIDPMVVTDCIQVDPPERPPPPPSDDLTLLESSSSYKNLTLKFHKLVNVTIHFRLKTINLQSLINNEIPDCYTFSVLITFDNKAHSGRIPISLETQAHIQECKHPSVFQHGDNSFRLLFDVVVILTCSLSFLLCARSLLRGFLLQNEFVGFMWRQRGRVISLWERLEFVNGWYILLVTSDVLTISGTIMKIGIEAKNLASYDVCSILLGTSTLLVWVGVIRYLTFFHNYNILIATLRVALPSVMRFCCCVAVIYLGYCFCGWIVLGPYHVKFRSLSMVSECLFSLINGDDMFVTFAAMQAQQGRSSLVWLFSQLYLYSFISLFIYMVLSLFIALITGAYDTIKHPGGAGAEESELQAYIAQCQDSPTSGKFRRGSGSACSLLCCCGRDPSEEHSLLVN
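Tet-induced TRPML1-DL cells loaded with Ca8 no-wash calcium dye were read kinetically on FDSS. Compound addition was followed by EC80 agonist 54-4 (4 uM final); inhibition was read over 110 s.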
Sfp inh: qHTS Assay for Inhibitors of Bacillus subtilis Sfp phosphopantetheinyl transferase (PPTase); 310,000 tested, 3.5% active; Biochemical Sfp PPTase activity, qHTS; AID 1490, 2009; Potency, µM, inactives show max response, negative = inhibition, most hits filed as inhibitors; active = well fitted inhibition curve with a large enough effect; inconclusive = small, poorly fitted or top-dose-only effect, or another doubt; inactive = no such curve, though single readings can be large or run the other way;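 note: the enzyme is Sfp with the accession as filed and its product quenches rhodamine fluorescence; potency is the fitted concentration of half-maximal effect; 0% = enzyme reaction without inhibitor and -100% = no enzyme wells; top concentration of the series not given in the record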
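Step 1, compound plus 15 nM Sfp-PPTase, 15 min, room temperature. Step 2, add rhodamine-CoA (5 uM) and BHQ-2-YbbR (12.5 uM). Step 3, read 525/598 nm fluorescence at 0 and 30 min.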
TRPV1 PAM: HTS Assay for Compounds that Act as Potentiators of the Vanilloid Receptor 1. Transient receptor potential cation channel subfamily V member 1 (Homo sapiens), Q8NER1. TRPV1-expressing cells, Fluo-8 calcium influx, capsaicin EC20 potentiation; host cell line not named in the record; control for the full effect not named in the record. potentiation, % at 8.33 µM. 320,000 tested, 0.02% active; active means potentiation above 80%; inconclusive means 30% to 80%; inactive means below 30%; note: 0% is about no effect
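TRPV1-expressing cells were cultured overnight at 35.5C and loaded with Fluo-8 calcium dye for 40 to 90 min at room temperature. After a 10 s baseline, compound was added and calcium influx was read kinetically for 3 min (ex 480/em 520 nm).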
Menin-MLL FL inh: qHTS Assay for Inhibitors Targeting the Menin-MLL Interaction in MLL Related Leukemias: Competition With Fluorescein Labeled MLL-derived Peptide; Fluorescence polarization, fluorescein-MLL peptide displacement from menin; 290,000 tested, under 10 active; FP activity change, % at 61.4 µM; AID 1766, 2009; inconclusive = falling polarisation curve, or a change in total fluorescence; inactive = total fluorescence flat and polarisation flat or rising; no compound was filed as active; the % refers to the polarisation; negative = inhibition;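 note: % of control where 0% means no effect; inhibitors lower the polarisation; unlabelled MLL peptide was the positive control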
ClpP mod: qHTS Assay for Activators of ClpP | ATP-dependent Clp protease proteolytic subunit (Bacillus subtilis (strain 168)), P80244 | purified B. subtilis ClpP, FRET peptide cleavage, 20 min | 340,000 tested, 1.9% active | AID 651965, 2013 | Potency, µM (doses to about 57.5 µM), without a hit: at the top dose activity change, negative = active; active = well fitted falling curve with a large enough effect; inconclusive = small, poorly fitted or top-dose-only effect; inactive = no such curve, though single readings can be large or run the other way; note: potency is the fitted concentration of half-maximal effect; the source files actives as falling curves though it sought activators and does not explain the sign; nearly all actives have a fitted effect of over 65% in size; many hits overshoot -100%
Target sequence (P80244 whole entry, looked up): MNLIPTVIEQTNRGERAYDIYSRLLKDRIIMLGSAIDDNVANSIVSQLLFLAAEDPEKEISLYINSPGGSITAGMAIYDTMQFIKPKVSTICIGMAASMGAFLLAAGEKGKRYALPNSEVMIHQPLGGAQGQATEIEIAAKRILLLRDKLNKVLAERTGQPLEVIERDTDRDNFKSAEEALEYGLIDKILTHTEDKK
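ClpP 10 microg/mL final, pH 8 Tris/KCl buffer with BSA, glycerol, Tween-20; compound pinned in; FRET-FV substrate; RT 20 min; Ex320/Em430; ΔFRET vs ADEP 5.8 microM, DMSO, no enzyme.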
Numbers without * were called inactive; ? = inconclusive; nt = no result given; & = joins results of further samples; [ ] = another dose, or the depositor's remark. A portion of the library; rates above refer to the full screens.

Screens in order – Sfp inh | TRPV1 PAM | TRPML1 inh | ClpP mod | gsp agonist | Menin-MLL FL inh | gsp antagonist
1: CC1([N+](=O)[O-])COP(=O)(Nc2ccccc2F)OC1 (stereo not given)
  nt | nt | -21 | -0.8% | -55%[inhibitor] | nt | 5%
2: CSc1nc(Cl)c(Br)c(N2CC2)n1
  nt | nt | 30 | nt | -14% | nt | -3%
3: O=C(c1cc(-c2cccnc2)nc2ccccc12)N1CCC2(CC1)OCCO2
  11% | -6 | 3 | -2.8% | -11% | -1.1 | -13%
4: CCOC(=O)C(O)(c1ccc(N)c(OC)c1)C(F)(F)F (stereo not given)
  12% | -4 | 1 | 1.5% | -8% | -1.2 | 16%
5: COc1ccc(-n2c(O)c(C(C)=NCc3ccco3)c(=O)[nH]c2=O)cc1
  -2% | 7 | 8 | -0.4% | -14% | 0.2 | 3%
6: O=[N+]([O-])/C=C1\NCCN1Cc1ccc(Cl)nc1
  -10%&6% | -16&-3 | 40&-9 | nt | -1%[15.4 µM] | 0.9&2.8 | 4%&7%
7: Cc1ccccc1-n1c(C)nc2sccc2c1=O
  8% | 3 | 5 | -2.6% | 4% | 2.6 | 7%
8: COc1ccc(N2C(=O)NC(=O)/C(=C\c3ccc([N+](=O)[O-])s3)C2=O)cc1
  40µM* | 1 | -2 | nt | 0%[15.4 µM] | ? | 5%
9: c1ccc(N2Cc3ccccc3-n3nncc3C2)nc1
  nt | nt | -18 | 0.1% | 34% | nt | nt
10: CC(C)(C)N1CC(C(=O)c2ccccc2)C1c1ccccc1 (stereo not given)
  nt | nt | 18 | -2.5% | 38% | nt | 0%
11: O=C(c1cc(-c2ccncc2)nc2ccccc12)N1CCC2(CC1)OCCO2
  28% | 1 | -6 | 28µM* | -53%[inhibitor] | -0.6 | -6%
12: N=C1c2ccccc2CN1c1cccc([N+](=O)[O-])c1
  19% | ? | -11 | 0.5% | 20%[15.4 µM] | 1.7 | -4%
13: Cc1cc(C(=O)CN2CCCC2)c(C)n1-c1ccc(F)cc1
  15% | -6 | 12 | 0.3% | 21% | -0.6 | 3%
14: O=C1NC(=S)N(c2ccccc2)C(=O)C1C(c1ccncc1)C1C(=O)NC(=S)N(c2ccccc2)C1=O (stereo not given)
  ? | 2 | 3 | -2.8% | 13%[15.4 µM] | 8.0 | 3%
15: CC(C)(C)P(=O)(c1ccncc1)N1CCCC1 (stereo not given)
  4% | 7 | -1 | -16% | -10% | 6.7 | 5%
16: Cc1cc(O)c2c(c1)C(=O)C13C(=C2O)C(=O)[C@H]2[C@@H](O)[C@@H]1[C@H]1[C@H](O)[C@@H]3C(=O)C3=C(O)c4c(O)cc(C)cc4C(=O)C312 (stereo not given in full)
  nt | -4 | nt | 2.2% | nt | nt | -6%
17: COc1ccc(S(=O)(=O)Cc2ccc(C(=O)N3CCC4(CC3)OCCO4)o2)cc1
  ? | 2 | -9 | -0.2% | -7% | -0.8 | -2%
18: Cc1cc(O)c2c(C)c(CC(=O)N3C[C@H]4C[C@@H](C3)c3cccc(=O)n3C4)c(=O)oc2c1
  3% | -1 | nt | -8.5% | nt | 4.5 | 10%
19: Clc1cccc(Cl)c1CN1CCN(c2ccccc2)CC1
  -26% | 10 | -9 | -5.6% | -42% | 3.2 | 0%
20: CN1CCN(c2ccc([N+](=O)[O-])cc2Cl)CC1
  11% | 2 | -4 | nt | -3%[15.4 µM] | -2.6 | -11%
21: CCC(=O)Nc1ccccc1
  26% | -2 | nt | -0.6% | nt | 0.4 | 2%
22: Fc1ccc(NC2=NCCS2)cc1Cl
  16% | -22 | 11 | -2.5% | 4% | -1.8 | 9%
23: COC(=O)CC1(CC(=O)OC)C(=O)NC(=O)NC1=O
  7% | -8 | 2 | -1.8% | -42%[inhibitor] | 1.4 | 9%
24: CCOP(=O)(OCC)C(CC)N1CCOCC1 (stereo not given)
  20% | 6 | 3 | 0.9% | 4% | -0.8 | -2%
25: Cc1n[nH]c(C)c1CCN
  1% | 0 | 21 | -1.0% | -8% | -5.1 | 1%
26: COc1cc(CN2CCN(C(=O)Cc3ccccc3)CC2)cc(OC)c1OC
  -11% | 21 | -2 | 1.0% | -28% | -5.8 | -9%
27: CN1C(=O)COc2c(C(=O)NC3CN4CCC3CC4)cc(Cl)cc21 (stereo not given)
  -20%&17% | 3 | nt | nt | nt | 4.5&-0.2 | nt
28: C[C@]12CCC3C(CC[C@H]4C[C@@H](O)CC[C@]34C)C1CC[C@@H]2N (stereo not given in full)
  nt | nt | -6 | 0.1% | 17%[15.4 µM] | nt | -4%
29: O=c1[nH]c2ccccc2c(=O)n1-c1ccc(Cl)cc1Cl
  3% | -8 | -8 | 0.1% | 9%[15.4 µM] | -1.3 | -9%
30: CCCCC(=O)N/N=C/c1c(O)n(CCC2=CCCCC2)c(=O)[nH]c1=O
  24% | 19 | -8 | -3.0% | -1% | 0.4 | -1%

Limited to Menin-MLL FL inh, TRPML1 inh and Sfp inh, for 4 of the compounds above:
cpd	smiles	Menin-MLL FL inh	TRPML1 inh	Sfp inh
22	Fc1ccc(NC2=NCCS2)cc1Cl	-1.8	11	16%
23	COC(=O)CC1(CC(=O)OC)C(=O)NC(=O)NC1=O	1.4	2	7%
24	CCOP(=O)(OCC)C(CC)N1CCOCC1 (stereo not given)	-0.8	3	20%
25	Cc1n[nH]c(C)c1CCN	-5.1	21	1%

Next part.
Screens in order – Sfp inh | TRPV1 PAM | TRPML1 inh | ClpP mod | gsp agonist | Menin-MLL FL inh | gsp antagonist
31: CCOC(=O)[C@@]1(C#N)[C@@H]2C=CC(C(N)=O)=CN2[C@@H](C(N)=O)[C@@H]1c1cccc(Cl)c1
  -8% | 3 | -13 | -6.6% | -13% | -2.0 | 2%
32: CCC(=O)c1ccc(OCC(=O)N2CCN(CC(=O)Nc3ccc(C)cc3)CC2)cc1
  nt | nt | -3 | -1.7% | -2% | nt | -10%
33: O=C1NC(=O)N(c2ccccc2)C(=O)/C1=C\c1ccccc1[N+](=O)[O-]
  22µM* | -6 | 0 | -6.9% | 6%[15.4 µM] | 5.1 | -9%
34: CC1C(=O)OC2CCN3CC4OC4(COC(=O)C(C)(O)C1(C)O)C23 (stereo not given)
  nt | nt | -4 | 3.5% | -3% | nt | -15%
35: O=C(O)c1cccc2c1NC(C(=O)O)C1CC(Sc3ccccc3[N+](=O)[O-])C(Cl)C21 (stereo not given)
  25µM* | 4 | -1 | -25% | -67%[inhibitor] | -12 | -24%
36: CCOc1ccc(N=Cc2c(O)n(-c3cc(C)cc(C)c3)c(=O)[nH]c2=O)cc1
  -29% | 4 | 10 | nt | 3% | 22 | -17%
37: O=P(CN1CCN(c2ccccc2)CC1)(N1CCCCC1)N1CCCCC1
  0% | 18 | -23 | -3.4% | -7% | 4.5 | -6%
38: Nc1c(Br)cc([N+](=O)[O-])cc1[N+](=O)[O-]
  nt | -8 | 32 | 0.5% | nt | nt | 2%
39: Cc1cc(OC(=O)CCCNC(=O)OC(C)(C)C)c2c3c(c(=O)oc2c1)CCC3
  12% | 19 | -4 | 5.5% | -30%[inhibitor] | 0.4 | -39%
40: Cc1sc2ncn(CC(=O)NCC(=O)N3CCC4(CC3)OCCO4)c(=O)c2c1C
  7% | -3 | 0 | 2.0% | 24% | -0.5 | 7%
41: O/N=C1/C(=C\c2ccccc2)N2CCC1CC2
  6% | 3 | 7 | -0.6% | 21% | 4.2 | 12%
42: Cc1cc(OCC(=O)NCC(O)c2ccccc2)c2c3c(c(=O)oc2c1)CCCC3 (stereo not given)
  7% | -26 | 13 | 4.0% | -14% | -1.0 | -11%
43: CC(C)NCC(O)c1ccc(C2CCCC2)cc1 (stereo not given)
  28% | 12 | -24 | -2.4% | 1% | 19 | 22%
44: Cc1ccc(-n2c(O)c(C=Nc3ccc(S(=O)(=O)N(C)C)cc3)c(=O)[nH]c2=O)cc1
  -13% | 4 | -7 | -16% | -20% | 23 | 3%
45: CC(=NCc1ccco1)c1c(O)n(-c2ccc(Cl)cc2)c(=O)[nH]c1=O
  4% | 0 | 18 | nt | 8%[15.4 µM] | -1.8 | -3%
46: C[N+]12CCC(CC1)C(C(O)(c1ccccc1)c1cccs1)C2 (stereo not given)
  -3% | ? | 16 | 0.2% | 11% | -4.6 | 4%
47: COc1ccc(CCNC(C)CCc2ccc(OC)cc2)cc1 (stereo not given)
  6% | 5 | 10 | -0.2% | 3% | -1.8 | 2%
48: CC(=O)Nc1ccc(S(=O)(=O)N(C)CCOCc2ccccc2)cc1
  -4% | -6 | 39 | 22µM* | -5% | 4.8 | 3%

Random excerpt: 3 compounds from above.
Screens in order – Sfp inh | TRPV1 PAM | TRPML1 inh | ClpP mod | gsp agonist | Menin-MLL FL inh | gsp antagonist
28: C[C@]12CCC3C(CC[C@H]4C[C@@H](O)CC[C@]34C)C1CC[C@@H]2N (stereo not given in full)
  nt | nt | -6 | 0.1% | 17%[15.4 µM] | nt | -4%
18: Cc1cc(O)c2c(C)c(CC(=O)N3C[C@H]4C[C@@H](C3)c3cccc(=O)n3C4)c(=O)oc2c1
  3% | -1 | nt | -8.5% | nt | 4.5 | 10%
27: CN1C(=O)COc2c(C(=O)NC3CN4CCC3CC4)cc(Cl)cc21 (stereo not given)
  -20%&17% | 3 | nt | nt | nt | 4.5&-0.2 | nt
